# Bioassay records: PubChem, Broad Institute
# T cruzi repl = T. cruzi replication inhibition; inhibition, % (no concentration beside the values); hit rate 1.4% among 300,000; T. cruzi beta-gal in NIH3T3, luminescence, 90 h; AID 1885;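 active = mean inhibition across valid replicates above about 55%, limit read from the data; inconclusive = mean below that limit but half or more replicates reach it; inactive = mean below it, under half of replicates reach it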;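 also: signal also drops with host cell toxicity which is not excluded here; 0% = plate median of DMSO wells and 100% = zero luminescence signal; higher percent means less beta-gal luminescence so fewer parasites; stock transfer was 50 nL into about 50 µL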
# Beta cell apopt = beta cell apoptosis inhibition | protection from apoptosis, % (no concentration beside the values) | hit rate 0.8% among 300,000 | INS-1E cytokine-induced death, ATP luminescence, 48 h; percent of positive-control rescue, neutral wells zero;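 active = all replicates at 75% or more, or half of them and the mean; inconclusive = half reach 75% but not the mean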;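 also: 0% = cytokine-treated negative control wells and 100% = positive control rescue; higher means more ATP so stronger rescue from cytokine killing; wells of about 40 µL received 100 nL stock; the first replicate is given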
# AF4-AF9 inh = inhibitors of human MLL-AF4/AF9 interaction. AlphaScreen, biotin-AF4 peptide binding to FLAG-AF9. inhibition, % at 10 µM. hit rate 0.47% among 350,000. AID 651704;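 active = every replicate reaching a set inhibition limit, whatever the replicate mean, cut at about 25% in these data; inconclusive = mean inhibition reaches that limit but some replicates miss it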;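 also: 0% = plate neutral control median and 100% = total signal loss; the record names both 10 and 1 µM as test concentration; the first replicate is given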
# Target sequence (P42568 whole entry, looked up): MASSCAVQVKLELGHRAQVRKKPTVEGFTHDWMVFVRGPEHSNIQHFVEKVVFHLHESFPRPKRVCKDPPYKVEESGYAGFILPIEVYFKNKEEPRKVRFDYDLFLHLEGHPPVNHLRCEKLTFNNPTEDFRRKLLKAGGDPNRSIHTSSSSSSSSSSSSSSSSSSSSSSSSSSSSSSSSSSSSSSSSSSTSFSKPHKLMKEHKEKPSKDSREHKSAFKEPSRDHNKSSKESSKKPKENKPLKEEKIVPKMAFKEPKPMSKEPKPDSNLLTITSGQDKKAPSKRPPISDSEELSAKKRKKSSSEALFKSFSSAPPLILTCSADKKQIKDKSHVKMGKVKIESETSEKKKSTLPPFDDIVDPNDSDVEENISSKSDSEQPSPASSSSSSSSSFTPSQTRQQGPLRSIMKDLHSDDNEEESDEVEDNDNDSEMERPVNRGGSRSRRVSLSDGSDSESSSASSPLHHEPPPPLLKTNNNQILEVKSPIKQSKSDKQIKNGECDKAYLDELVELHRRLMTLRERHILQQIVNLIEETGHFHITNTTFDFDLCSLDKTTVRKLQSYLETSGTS
# ALR inh = inhibitors of human sulfhydryl oxidase ALR; P55789; purified ALR, DTT oxidation, H2O2 HRP-luminol luminescence; inhibition, % (concentration not given with the values); hit rate 3.8% among 290,000;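 active = mean and each replicate at 75% or more; inconclusive = only one of the two met; inactive = neither met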;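 also: stock transfer was 7.5 nL into about 7.5 µL; 0% = neutral wells and 100% = wells with inactivated enzyme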
# Target sequence (P55789 whole entry, looked up): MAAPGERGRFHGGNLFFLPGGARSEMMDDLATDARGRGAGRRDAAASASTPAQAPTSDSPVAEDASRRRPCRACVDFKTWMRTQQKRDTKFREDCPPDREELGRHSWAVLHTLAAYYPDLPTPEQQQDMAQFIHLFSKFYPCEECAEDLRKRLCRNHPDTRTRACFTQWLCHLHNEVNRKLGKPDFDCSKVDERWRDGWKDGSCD
# FGF22 binding = shifts melting point of recombinant human FGF22 | recombinant FGF22 thermal shift, SYPRO orange fluorescence; percent of sucrose octasulfate shift, DMSO zero | hit rate 1.5% among 340,000 | AID 651658 | calls only at 9.99 µM | Q9HCT0;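 active = melting point raised past a set limit in the mean and every replicate; inconclusive = no clear call; three in four hits are not shown here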
# Target sequence (Q9HCT0 whole entry, looked up): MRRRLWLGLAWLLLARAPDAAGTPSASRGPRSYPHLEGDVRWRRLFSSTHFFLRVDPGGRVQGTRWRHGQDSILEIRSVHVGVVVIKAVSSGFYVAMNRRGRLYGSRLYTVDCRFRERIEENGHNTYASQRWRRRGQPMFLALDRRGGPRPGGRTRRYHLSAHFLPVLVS
# RanGTP-Impb inh = inhibitors of RanGTP-importin-beta interaction, primary screen, biochemical, FRET, CFP-Ran, YFP-importin-beta, homogeneous. hit rate 1.1% among 300,000. cell-free CFP-Ran/YFP-importin-beta FRET ratio. inhibition, % (test concentration not listed);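 active = most replicates above 15%; inconclusive = exactly half above 15%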;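 also: 0% = DMSO wells and 100% = Ran loaded with GDP instead of GTP; wells of about 40 µL received 100 nL stock; the first replicate is given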
# Ecoli rRNA inh = inhibitors of bacterial rRNA selective over humanized ribosomes; E. coli WT GFP vs humanized-ribosome RFP mutants, fluorescence, 24 h; stronger effect = lower value; DMSO median 0, no signal -100; GFP signal change (wild-type ribosome), % (concentration not given with the values); hit rate 1.6% among 350,000; AID 720706;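 active = significant combined selectivity score with lowered wild-type GFP, culture density cut under 30%, mutant RFP and density less affected; inactive = any of these conditions unmet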; also: one replicate is shown; some compounds called inactive have numbers as strong as hits
# Calb FLC = affects C. albicans growth with fluconazole; C. albicans CaCi-2 (fluconazole-resistant clinical isolate) + fluconazole, Alamar Blue growth, 48 h; growth inhibition, % (concentration not given with the values); hit rate 0.57% among 300,000; AID 1979;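 active = most replicates above 75%; inconclusive = exactly half above 75%; inactive = most below 75%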;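 also: all wells also contain fluconazole at 8 µg/ml as a sub-toxic cotreatment; 0% = median of DMSO wells and 100% = median of geldanamycin control wells; wells of about 8 µL received 7.5 nL stock; the first replicate is given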
# Ecoli rRNA inh OD600 = also measured in Ecoli rRNA inh; calls as there; OD600 change, %; measured here: OD600 growth;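 optical density of the mix in the first replicate; 0 = DMSO median and -100 = no signal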
# Ecoli rRNA inh RFP = second read-out of Ecoli rRNA inh, no call of its own (marks repeat the call); RFP signal change, %; measured here: RFP humanized mutant strains;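 first replicate; 0 = DMSO median and -100 = no signal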
# * hit, by the source's call; i = inactive; ? = inconclusive; . = not tested or not shown; + = active, no number.
SMILES,T cruzi repl,Beta cell apopt,AF4-AF9 inh,ALR inh,FGF22 binding,RanGTP-Impb inh,Ecoli rRNA inh,Ecoli rRNA inh OD600,Ecoli rRNA inh RFP,Calb FLC
CC1Cc2ccccc2N1C(=O)COC(=O)c1c2c(nc3ccccc13)CCCCC2 (stereo not drawn),46,18,.,-8,.,-2.4,.,.,.,?
O=C(OCC#CCSc1nnc(-c2ccccc2)o1)c1ccco1,11,0,.,-7,.,0.4,.,.,.,6
COc1ccc(Cl)cc1NC(=O)NCc1cccnc1,-8,1,-11,-5,i,1.1,2,0,0.1,2
Cn1c(N)c(C(=O)COC(=O)C2CC(O)CN2S(=O)(=O)c2ccc(Cl)cc2)c(=O)n(C)c1=O (stereo not drawn),-26,-5,-2.3,-1,i,2.1,-6,-10,1.3,-3
O=C(NCc1nc2ccccc2[nH]1)c1ccco1,-4,-5,.,7,.,0.7,.,.,.,0
CCOC(=O)C1CCCN(S(=O)(=O)c2ccc3c4c(cccc24)C(=O)N3CC)C1 (stereo not drawn),.,5,-15,-16,i,.,-7,-4,0.9,.
CN(C(=O)/C=C/c1ccc([N+](=O)[O-])s1)c1ccccc1,54,32,6.8,.,i,6.0,4,8,5.5,23
O=[n+]1c2c(n([O-])c3c1CCCC3)CCCCC2,-13,-4,.,-6,.,-3.6,.,.,.,4
Cc1ccc(N2CC(C(=O)Nc3ccc(S(=O)(=O)N4CCCC4)cc3)CC2=O)cc1C (stereo not drawn),-4,-1,1.3,-5,i,3.1,3,5,-0.8,3
Cc1nn(-c2ccccc2)c(C)c1/C=N\NS(=O)(=O)c1ccc(Cl)cc1,-9,-6,.,-13,.,5.3,.,.,.,-18
CCN(CC(=O)Nc1ccc(NC(C)=O)cc1)C(=O)/C=C/c1ccco1,-20,-2,-0.9,-2,.,-0.6,10,1,3.5,-7
O=C(N[C@@H]1CCC(=O)N(CC[C@H](Oc2ccccc2)c2ccccc2)CC1)OCc1ccccc1,26,11,.,-1,i,9.4,-8,-16,1.2,0
COc1cccc2cc(C(=O)Nc3ccccc3C(=O)N3CCOCC3)oc12,1,-5,-3.0,-3,i,0.1,-3,-18,-0.7,1
Cc1cccc(CCNS(=O)(=O)c2ccc3c(c2)oc(=O)n3C)c1,11,-4,.,-5,.,-0.8,.,.,.,10
Cc1cc2c(ccc3c2no[n+]3[O-])nn1,-9,-4,.,-9,.,1.3,.,.,.,16
O=C(Nc1ccccc1F)N1CCc2ccccc2C1,10,0,-1.8,-7,i,-3.0,0,1,-0.8,5
CCOC(=O)C(C(=O)OCC)C1OC(=O)c2cc3c(cc21)C(=O)OC3C(C(=O)OCC)C(=O)OCC (stereo not drawn),-5,2,-3.7,13,i,5.5,14,2,-8.8,5
COc1ccc(S(=O)(=O)N2CCOCC2)cc1NC(=O)CCc1nc2ccccc2c(=O)[nH]1,-16,0,-1.7,-9,i,0.2,6,6,4.6,10
COc1ccccc1N1CCN(C(=O)C(=O)c2cn(CC(=O)N3CCOCC3)c3ccccc23)CC1,-3,-5,-8.1,6,i,0.2,11,7,0.1,-8
CC(=O)N1CCOc2ccc(S(=O)(=O)N3CCC(C(=O)Nc4ccc(C)cc4)CC3)cc21,-1,-4,1.1,-2,i,-2.3,-8,0,0.1,-19
CN(C)c1ccc(NC(=O)c2cn(-c3ccccc3)nc2-c2cccs2)cc1,14,.,.,6,.,-4.1,.,.,.,13
CC(C)(C)c1nc(NCCN2CCOCC2)c2nnn(Cc3ccccc3Cl)c2n1,10,28,-1.4,-5,i,4.8,-3,5,-0.9,24
Cn1nnc2cc(C(=O)NC3CC3)ccc21,-8,-1,.,-14,.,1.4,.,.,.,-5
CC(NC(=O)CN(C)Cc1ccc(Br)cc1)c1ccccc1 (stereo not drawn),17,-5,0.3,-5,i,2.1,-1,-25,-2.8,16
[N-]=[N+]=NC[C@H](Cc1ccccc1)N1CC[C@@H](OCc2ccccc2)CCC1=O,-7,4,-0.7,15,i,0.7,-25*,-8.2*,-1.6*,-22

# Following part.
SMILES,T cruzi repl,Beta cell apopt,AF4-AF9 inh,ALR inh,FGF22 binding,RanGTP-Impb inh,Ecoli rRNA inh,Ecoli rRNA inh OD600,Ecoli rRNA inh RFP,Calb FLC
CN1C(=O)/C(=C2/C=Cc3ccccc3N2CCCS(=O)(=O)O)SC1=S,18,14,.,84*,.,-5.6,.,.,.,2
Cc1ccc(CNC(=O)c2ccc3c(c2)S(=O)(=O)c2ccccc2C3=O)cc1,6,1,.,-10,.,8.7,.,.,.,-8
Cn1nnc(NCc2cc(Br)ccc2OCc2ccccc2F)n1,6,0,-1.7,-2,i,3.2,1,0,2.3,-3
Cc1[nH][nH]c(=O)c1C(c1ccc2c(c1)OCO2)c1c(C)[nH][nH]c1=O,-3,0,2.1,10,.,-5.4,15,15,-1.0,2
COC(=O)c1ccccc1S(=O)(=O)N1CCC(C(=O)NC2CCCCC2)CC1,.,-1,0.9,-10,i,.,17,9,0.4,.
Nc1ccc(S(N)(=O)=O)cc1,-11,-2,-0.5,-10,i,-0.3,.,.,.,.
CC(C)N1CCC(=NNc2ccc(S(=O)(=O)N3CCOCC3)cc2[N+](=O)[O-])CC1,1,0,-11,-1,i,?,3,-2,-4.6,-13
CCN(CC)S(=O)(=O)c1ccc(C(=O)NCCc2ccccn2)cc1,-5,-3,-1.9,-7,i,0.0,8,3,-0.7,11
CCN(CC)C(=O)CSc1nc2ccsc2c(=O)n1CCCC(=O)NCCc1ccc(S(N)(=O)=O)cc1,-4,5,-0.2,0,i,-0.3,5,0,-0.2,13
CCOC(=O)c1ccc(-c2ccc(/C=N/NC(=O)CN(c3cccc(C)c3)S(C)(=O)=O)o2)cc1,1,13,0.4,-5,i,1.0,7,3,-1.4,11
COCCNC(=O)Cn1c(=O)n(C)c2ccccc21,-1,-8,.,-1,.,2.2,.,.,.,1
O=C(Cn1c(=O)oc2cc(S(=O)(=O)N3CCCC3)ccc21)N1CCCC1,-2,-13,28*,-13,i,3.1,9,15,0.0,-1
CC(C)(C)OC(=O)NNC1CC(=O)N(c2ccccc2F)C1=O (stereo not drawn),-15,-2,.,0,.,8.7,.,.,.,-2
CCCC1(C(=O)OC)NC(c2ccc(OC)c(OC)c2)C2C(=O)N(c3cccc(C(C)=O)c3)C(=O)C21 (stereo not drawn),4,-3,-14,3,i,-1.0,17,11,1.8,-12
O=C(NC(Cc1ccccc1)c1ccc2c(c1)OCCCO2)c1ccc(F)cc1 (stereo not drawn),8,-3,.,-2,.,-2.0,.,.,.,-11
CCCCCCCCOC(=O)c1nc(Cl)c(Cl)c(N)c1Cl,7,-4,-2.1,-3,+,-4.0,-7,-15,-18,-26
O=C1CN(C(=O)COC(=O)c2ccc([N+](=O)[O-])o2)c2ccccc2N1,.,2,0.5,-97,i,.,-2,5,-4.0,.
CCC(C)[C@H](NC(=O)OC(C)(C)C)C(=O)N/N=C/C1=Cc2ccccc2OC1 (stereo partly drawn),14,18,5.2,-1,i,1.5,.,.,.,-39
Clc1ccccc1C1=Nn2c(nnc2-c2ccncc2)SC1,-10,-4,.,-12,.,6.6,.,.,.,5
COc1ccc(S(=O)(=O)N2CCN(CCOc3ccccc3Cl)CC2)cc1OC,.,-4,-3.4,-1,i,.,-7,-13,4.7,.
O=[N+]([O-])c1ccc(S(=O)(=O)N2CCN(c3ccnc4cc(Cl)ccc34)CC2)cc1,60*,2,4.3,-5,i,-2.0,11,5,2.7,-24
N/C(=N\OC(=O)Cc1ccccc1)c1ccc([N+](=O)[O-])cc1,-9,-3,.,-25,.,0.3,.,.,.,-2
CCC(C(=O)OCC(=O)Nc1cc(C)ccc1OC)c1ccccc1 (stereo not drawn),10,-3,-17,-2,i,-0.9,-7,-18,0.5,-14
COc1ccc(C(=O)NCC(=O)N2CCN(C(=O)c3ccco3)CC2)cc1,-10,10,-1.7,0,i,-3.5,14,19,-0.3,1
CCO[C@H]1OC(C(=O)N2CCCCCCC2)=C[C@@H](c2coc3ccccc3c2=O)[C@@H]1CCCO,13,4,.,-21,.,-0.9,.,.,.,-5

# The listing continues:
SMILES,T cruzi repl,Beta cell apopt,AF4-AF9 inh,ALR inh,FGF22 binding,RanGTP-Impb inh,Ecoli rRNA inh,Ecoli rRNA inh OD600,Ecoli rRNA inh RFP,Calb FLC
COc1ccc(S(=O)(=O)N2CCOC2CNC(=O)C(=O)NCCc2ccccc2OC)cc1 (stereo not drawn),2,3,2.3,.,i,0.3,2,-9,-1.0,-10
COc1ccc(CN2CCCC(N3CCc4ccccc4C3)C2)c(O)c1 (stereo not drawn),23,.,6.2,.,i,0.5,7,11,-0.6,2
Cc1cc(Cl)cc(Cl)c1OCCOCCN(C)C,23,-6,1.8,-3,i,-0.6,.,.,.,7
O=C(Cc1n[nH]c(=O)c2ccccc12)Nc1cc(Cl)ccc1-n1cncn1,-14,3,-16,-11,i,-0.2,6,14,-2.5,0
Cc1cccc(-c2sc(Nc3ccccc3)n[n+]2-c2ccc(F)cc2)c1,-7,6,-9.4,6,i,2.4,-5,-1,1.4,-8
COc1ccc(NC(=O)NCc2ccncc2)c(OC)c1,-4,-7,.,-37,.,1.4,.,.,.,-13
Nc1cc(N)nc(CS)n1,-23,-6,-0.3,4,i,-1.5,9,2,0.4,-17
S=c1nc(NCCc2ccccc2Cl)c2ccccc2[nH]1,0,18,-3.4,2,i,7.5,12,-2,-1.3,10
O=C(CN1C(=O)c2ccc([N+](=O)[O-])cc2C1=O)Nc1ccccc1N1CCCC1,-7,4,-1.7,62,i,-1.9,10,11,-1.2,-1
CCN(CC)S(=O)(=O)c1cccc(-c2cn3cc(C)ccc3n2)c1,18,-3,.,61,.,4.3,.,.,.,9
Cc1cc(C)c(NC(=S)N(C)C)cc1C,-7,-3,0.5,-3,i,?,.,.,.,-2
COc1cccc(C(c2nnnn2Cc2ccccc2)N2CCN(C3CCCC3)CC2)c1OC (stereo not drawn),26,0,.,.,.,0.6,.,.,.,-11

# Fetched by structure from above:
SMILES,T cruzi repl,Beta cell apopt,AF4-AF9 inh,ALR inh,FGF22 binding,RanGTP-Impb inh,Ecoli rRNA inh,Ecoli rRNA inh OD600,Ecoli rRNA inh RFP,Calb FLC
COc1ccc(CN2CCCC(N3CCc4ccccc4C3)C2)c(O)c1 (stereo not drawn),23,.,6.2,.,i,0.5,7,11,-0.6,2
Cc1cc(Cl)cc(Cl)c1OCCOCCN(C)C,23,-6,1.8,-3,i,-0.6,.,.,.,7
Cc1cc(C)c(NC(=S)N(C)C)cc1C,-7,-3,0.5,-3,i,?,.,.,.,-2
Nc1cc(N)nc(CS)n1,-23,-6,-0.3,4,i,-1.5,9,2,0.4,-17
COc1ccc(S(=O)(=O)N2CCOC2CNC(=O)C(=O)NCCc2ccccc2OC)cc1 (stereo not drawn),2,3,2.3,.,i,0.3,2,-9,-1.0,-10
S=c1nc(NCCc2ccccc2Cl)c2ccccc2[nH]1,0,18,-3.4,2,i,7.5,12,-2,-1.3,10

# These rows are one share of the data; rates above refer to the full screens.
